Screens from PubChem BioAssay.
Ecoli rRNA inh – inhibitors of bacterial rRNA selective over humanized ribosomes; E. coli WT GFP vs humanized-ribosome RFP mutants, fluorescence, 24 h; stronger effect = lower value; DMSO median 0, no signal -100; GFP signal change (wild-type ribosome), % (concentration not given with the values); 1.6% of 350,000 active; AID 720706;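 active = significant combined selectivity score with lowered wild-type GFP, culture density cut under 30%, mutant RFP and density less affected; inactive = any of these conditions unmet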; note: one replicate is shown; some compounds called inactive have numbers as strong as hits
Ecoli rRNA inh OD600 – further read-out of Ecoli rRNA inh, marked with its call; OD600 change, %; measured here: OD600 growth;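 optical density of the mix in the first replicate; 0 = DMSO median and -100 = no signal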
Ecoli rRNA inh RFP – further read-out of Ecoli rRNA inh, marked with its call; RFP signal change, %; measured here: RFP humanized mutant strains;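 first replicate; 0 = DMSO median and -100 = no signal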
* hit, by the source's call; & = joins results of further samples. A portion of the library. The share of hits here may be higher or lower than overall.

SMILES	Ecoli rRNA inh	Ecoli rRNA inh OD600	Ecoli rRNA inh RFP
Cc1ccccc1S(=O)(=O)N(C)C[C@H]1OCc2cn(nn2)CCCC(=O)N([C@@H](C)CO)C[C@@H]1C	3&6	3&8	-3.2&-2.5
Cc1cccc(S(=O)(=O)NC(=O)C2(C)CCN2C(=O)c2ccccc2)c1 (stereo unspecified)	6	14	-1.4
C/C=C/c1cnc2c(c1)C(=O)N([C@@H](C)CO)C[C@H](C)[C@@H](CN(C)Cc1cncnc1)O2	1	9	-2.3
CO[C@H]1CN(C)C(=O)c2cc(NC(C)=O)ccc2OC[C@H](C)N(C(=O)C2CC2)C[C@H]1C	2	4	2.2
CCC1(c2ccccc2)NC(=O)N(CC(=O)Nc2ccc3c(c2)CCC3)C1=O (stereo unspecified)	-14	-18	-1.5
Cc1noc(C)c1S(=O)(=O)Nc1ccc2c(c1)C(=O)N([C@@H](C)CO)C[C@H](C)[C@@H](CN(C)Cc1ccc(C(=O)Nc3ccccc3N)cc1)O2	-3	7	-0.1
CN(C)CCCNC(=O)[C@H]1[C@H](CO)[C@H]2Cn3c(cccc3=O)[C@@H]1N2CC1CC1	2	12	-0.3
C[C@H]1CCCCO[C@H](CN(C)C(=O)C2CCCCC2)[C@@H](C)CN([C@@H](C)CO)C(=O)c2cc(NS(=O)(=O)c3ccccc3)ccc2O1	2	-8	1.4
COc1ccc(CN(C)C[C@@H]2OCCCC[C@H](C)Oc3ccc(NS(=O)(=O)c4ccc(OC)cc4)cc3C(=O)N([C@@H](C)CO)C[C@H]2C)cc1	-2	0	0.7
COc1ccc2c3c(n(C)c2c1)[C@H](CO)N(C(=O)CN(C)C)CC31CCN(Cc2cccnc2)CC1	1	-2	-1.3
CC(C)NC(=O)Nc1ccc2c(c1)CC(=O)N([C@@H](C)CO)C[C@H](C)[C@H](CN(C)Cc1ccc(C(=O)O)cc1)O2	6	18	-0.1
C[C@H](CO)N1C[C@H](C)[C@H](CN(C)Cc2ccc3c(c2)OCO3)Oc2ccc(NS(=O)(=O)c3cn(C)cn3)cc2CC1=O	2	4	1.1
C[C@@H]1CN([C@H](C)CO)C(=O)CCCn2nncc2CO[C@@H]1CN(C)C(=O)C1CCCCC1	3&4	5&1	11&-2.7
CO[C@@H]1CN(C)C(=O)c2ccc(NC(=O)c3ccccc3)cc2OC[C@H](C)N(C)C[C@@H]1C	2	1	2.5
COc1ccc(C(=O)CSc2nc(=O)n3ccc(C)cc3n2)cc1	4	10	1.2
CC(=O)c1ccc(-c2cnc3c(NC=O)cc(-c4cccc(NS(C)(=O)=O)c4)cn23)cc1	-3	-10	2.2
O=C(NCc1ccccc1)C(c1ccccc1)n1c(=O)c(-c2ccco2)nc2ccccc21 (stereo unspecified)	8	14	0.1
C[C@H](CO)N1C[C@H](C)[C@H](CN(C)Cc2ccccc2F)Oc2ncc(-c3ccccc3F)cc2C1=O	0	4	4.9
C[C@@H]1CN([C@H](C)CO)C(=O)Cc2cc(NS(=O)(=O)c3ccccc3)ccc2O[C@@H]1CN(C)Cc1ccncc1	-4	7	-0.6
COCC(=O)N1C[C@H](C)[C@@H](OC)CN(C)C(=O)c2ccc(NC(=O)c3ccc(OC)cc3)cc2OC[C@H]1C	-3	1	0.4
CN1C(=O)c2cc(NC(=O)c3cccs3)ccc2OC[C@H]2O[C@H](CC(=O)N3CCCCC3)CC[C@H]21	-6	-6	-0.7
C/C=C/c1ccccc1[C@@H]1[C@@H](C#N)N(C(=O)c2cccnc2)[C@@H]1CO	5	8	2.0
CCCNC(=O)N(C)C[C@@H]1Oc2ncc(-c3ccncc3)cc2C(=O)N([C@@H](C)CO)C[C@@H]1C	0	5	-3.1
Cc1noc(C)c1S(=O)(=O)Nc1cccc2c1O[C@H](CN(C)S(=O)(=O)c1ccccc1)[C@H](C)CN([C@H](C)CO)C2=O	-1	-3	-0.3
Cc1noc(C)c1NC(=O)Nc1ccc2c(c1)C(=O)N([C@@H](C)CO)C[C@H](C)[C@H](CN(C)Cc1ccc(C(=O)Nc3ccccc3N)cc1)O2	-2	1	1.3
C[C@@H]1CCCCO[C@@H](CN(C)Cc2ccc(C(F)(F)F)cc2)[C@H](C)CN([C@H](C)CO)C(=O)c2cc(NS(C)(=O)=O)ccc2O1	0	-1	0.3
O=C(NC[C@H]1[C@H](c2ccccc2)[C@@H](CO)N1CC1CC1)C1CC1	3	-2	-1.5
CCOC(=O)Cn1nc2oc(=O)c(CCN3CCN(c4ccccc4OC)CC3)c(C)c2c1C	4	7	1.5
O=C(CNc1cccc(S(=O)(=O)N2CCCCC2)c1)Nc1ccc(C(F)(F)F)cc1	-16	-41	11
COC(=O)Cc1nnn2c1[C@H](C)[C@@H](OC)c1cccc(Cl)c1-2	10	15	1.9
C[C@H](CO)N1C[C@H](C)[C@H](CN(C)C(=O)C2CCCCC2)Oc2ncc(C#CCc3ccccc3)cc2C1=O	5	4	0.5
C[C@@H]1CN([C@@H](C)CO)S(=O)(=O)c2ccc(C#CC3(O)CCCC3)cc2O[C@@H]1CN(C)C(=O)Cc1ccncc1	1	9	-1.1
Cc1cccc(C)c1NC(=O)C1(C)CN(S(C)(=O)=O)CC(=O)N1CCc1ccccc1F (stereo unspecified)	-11	0	4.0
COC(=O)c1cc(S(=O)(=O)NCC2CCN(C(=O)C(=O)c3cc4ccccc4o3)CC2)cs1	-19*	-13*	7.7*
O=c1[nH]c2ccc(Br)cc2c(=O)o1	6	12	2.3
C/C=C/c1cccc(-c2nc(C(=O)N3CCOCC3)cc3c2[C@@H](CCO)N(C(=O)NC(C)C)C3)c1	21	4	5.5
COc1ccc(NC(=O)N(C)C[C@H]2Oc3c(NS(=O)(=O)c4c(C)noc4C)cccc3C(=O)N([C@H](C)CO)C[C@H]2C)cc1	1	1	-0.6
C[C@@H]1CN([C@@H](C)CO)C(=O)c2cc(NC(=O)Cn3cnnn3)ccc2O[C@H]1CN(C)C(=O)Nc1ccc2c(c1)OCO2	0	17	0.7
COc1ccc(CN(C)C[C@@H]2OCCCC[C@H](C)Oc3ccc(NC(=O)C4CCCCC4)cc3C(=O)N([C@@H](C)CO)C[C@H]2C)cc1	-6	-22	-3.1
O=C(Nc1ccccc1F)N1CC2(C1)[C@@H](c1ccccc1)[C@@H](CO)N2C(=O)CC1CC1	-2	9	2.5

Pulled by structure from the list above, 3 records:
SMILES	Ecoli rRNA inh	Ecoli rRNA inh OD600	Ecoli rRNA inh RFP
COc1ccc(NC(=O)N(C)C[C@H]2Oc3c(NS(=O)(=O)c4c(C)noc4C)cccc3C(=O)N([C@H](C)CO)C[C@H]2C)cc1	1	1	-0.6
O=C(CNc1cccc(S(=O)(=O)N2CCCCC2)c1)Nc1ccc(C(F)(F)F)cc1	-16	-41	11
CN1C(=O)c2cc(NC(=O)c3cccs3)ccc2OC[C@H]2O[C@H](CC(=O)N3CCCCC3)CC[C@H]21	-6	-6	-0.7

Given as comma-separated lines: 2 of the compounds above.
canonical_smiles,Ecoli rRNA inh,Ecoli rRNA inh OD600,Ecoli rRNA inh RFP
Cc1noc(C)c1S(=O)(=O)Nc1cccc2c1O[C@H](CN(C)S(=O)(=O)c1ccccc1)[C@H](C)CN([C@H](C)CO)C2=O,-1,-3,-0.3
Cc1noc(C)c1NC(=O)Nc1ccc2c(c1)C(=O)N([C@@H](C)CO)C[C@H](C)[C@H](CN(C)Cc1ccc(C(=O)Nc3ccccc3N)cc1)O2,-2,1,1.3

More compounds
SMILES	Ecoli rRNA inh	Ecoli rRNA inh OD600	Ecoli rRNA inh RFP
Cc1noc(NS(=O)(=O)c2ccc(NS(=O)(=O)c3ccc(C(C)(C)C)cc3)cc2)c1C	0	-4	1.3
CCCCCCNC(=O)O[C@]12C[C@@H](C(=O)OC)[C@@H](C(=O)OC)C[C@@]1(O)CN(S(=O)(=O)c1ccc(C)cc1)C2	-20	-38	-2.6
O=C(Cc1ccncc1)NCC[C@@H]1CC[C@@H](NC(=O)C2CCCCC2)[C@H](CO)O1	-5	-1	-1.0
CCN1[C@@H]2c3ccc(C4=CCCCC4)c(=O)n3C[C@H]1[C@H](CO)[C@H]2C(=O)NCCc1ccncc1	3	4	-1.2
COc1ccc2c3c([nH]c2c1)[C@@H](CO)N(C(=O)c1cccc(F)c1)CC31CCN(C(=O)c2ccccc2)CC1	-10	-1	-1.1
C[C@@H]1CCCCO[C@@H](CN(C)C(=O)Nc2cccc3ccccc23)[C@@H](C)CN([C@H](C)CO)C(=O)c2cc(NC(=O)CCC(F)(F)F)ccc2O1	3	1	1.3
O=C(C[C@H]1CC[C@@H]2[C@H](COC[C@@H](O)CN2C(=O)Nc2ccc(F)cc2)O1)NC1Cc2ccccc2C1	0	6	-5.0
COc1ccc(NC(=O)Nc2ccc3c(c2)C(=O)N([C@@H](C)CO)C[C@H](C)[C@@H](CN(C)S(=O)(=O)c2c(C)noc2C)OCCCC[C@H](C)O3)cc1	-2	-2	-1.4
CO[C@@H]1CN(C)C(=O)c2cc(NS(=O)(=O)c3cccc(F)c3)ccc2OC[C@H](C)NC[C@H]1C	1	6	2.0
Cc1noc(C)c1NC(=O)N(C)C[C@H]1OCc2cn(nn2)CCCC(=O)N([C@@H](C)CO)C[C@H]1C	1	-1	-1.3
CCCN1C[C@@H](C)[C@@H](OC)CN(C)C(=O)c2ccc(NC(=O)c3cnccn3)cc2OC[C@H]1C	3	1	-1.1
C[C@@H]1CN([C@@H](C)CO)C(=O)Cc2cc(NC(=O)C3CC3)ccc2O[C@@H]1CN(C)C(=O)Nc1cccc2ccccc12	4	4	0.7
COc1ccc(S(=O)(=O)N(C)C[C@@H]2Oc3ccc(NC(=O)CCC(F)(F)F)cc3C(=O)N([C@@H](C)CO)C[C@@H]2C)cc1	2	3	-0.8
COc1ccccc1S(=O)(=O)N(C)C[C@H]1Oc2ncc(-c3ccc(C)cc3)cc2C(=O)N([C@@H](C)CO)C[C@@H]1C	-4	-9	13
COCC(=O)N(C)C[C@H]1Oc2cc(-c3ccc(C#N)cc3)ccc2S(=O)(=O)N([C@H](C)CO)C[C@H]1C	0	8	-2.1
C[C@H]1CCCCO[C@@H](CN(C)Cc2ccc3c(c2)OCO3)[C@@H](C)CN([C@@H](C)CO)C(=O)c2cc(NS(=O)(=O)c3ccc(F)cc3)ccc2O1	3	-7	2.5
O=C(C[C@H]1CC[C@H]2[C@@H](COC[C@@H](O)CN2Cc2ccncc2)O1)NCc1ccncc1	-2	7	-0.2
Cn1cc(-c2ccc3c(c2)OCO3)c2ccccc21	1	-24	4.2
CCS(=O)(=O)N1CC2(C1)[C@@H](c1ccccc1)[C@@H](CO)N2Cc1ccccn1	1	-1	-1.8
COc1ccc(S(=O)(=O)N(C)C[C@H]2OCCCC[C@H](C)Oc3ccc(NC(=O)Nc4ccc(F)cc4)cc3C(=O)N([C@@H](C)CO)C[C@H]2C)cc1	0	4	-1.5

Filtered by structure, the entries above containing a cyano group
SMILES	Ecoli rRNA inh	Ecoli rRNA inh OD600	Ecoli rRNA inh RFP
C/C=C/c1ccccc1[C@@H]1[C@@H](C#N)N(C(=O)c2cccnc2)[C@@H]1CO	5	8	2.0
COCC(=O)N(C)C[C@H]1Oc2cc(-c3ccc(C#N)cc3)ccc2S(=O)(=O)N([C@H](C)CO)C[C@H]1C	0	8	-2.1

(listing goes on)
SMILES	Ecoli rRNA inh	Ecoli rRNA inh OD600	Ecoli rRNA inh RFP
C[C@@H]1CN([C@@H](C)CO)C(=O)Cc2cc(NC(=O)CCN3CCOCC3)ccc2O[C@H]1CN(C)Cc1ccccc1	2	-2	-0.3
C[C@H](CO)N1C[C@H](C)[C@@H](CN(C)S(=O)(=O)c2ccccc2F)Oc2ncc(C#Cc3cccnc3)cc2C1=O	-4&-9	-4&-9	4.0&1.0
COCC(=O)Nc1ccc2c(c1)[C@H]1C[C@H](CC(=O)NCc3ccccc3OC)O[C@@H](CO)[C@H]1O2	4	12	-0.6
COc1cccc(S(=O)(=O)N2C[C@@H](O)COC[C@H]3O[C@H](CC(=O)N4CCN(c5ccccc5)CC4)CC[C@@H]32)c1	-2	2	0.5
CO[C@@H]1CN(C)C(=O)c2ccc(NC(=O)C3CCCCC3)cc2OC[C@@H](C)N(C(=O)c2ccccc2)C[C@H]1C	-5	-9	2.7
O=C(C1CCCC1)N1CC2(C1)[C@H](c1ccccc1)[C@H](CO)N2Cc1nccs1	-1	-6	-0.6
CC(C)NC(=O)N(C)C[C@H]1Oc2ccc(NS(=O)(=O)c3ccccc3)cc2CC(=O)N([C@@H](C)CO)C[C@@H]1C	1	5	1.4
CN1CCCC1=Nc1ccccc1	4	12	-5.3
Cc1noc(C)c1S(=O)(=O)Nc1ccc2c(c1)C(=O)N([C@@H](C)CO)C[C@H](C)[C@H](CN(C)Cc1ccc(C(=O)O)cc1)OCCCC[C@H](C)O2	-1	-1	-3.1
CCCNC(=O)C[C@H]1CC[C@@H]2[C@H](COc3ccc(NC(=O)c4cc(C)on4)cc3C(=O)N2C)O1	2	4	-0.6
CN1C(=O)c2cc(NS(C)(=O)=O)ccc2OC[C@H]2O[C@@H](CC(=O)O)CC[C@@H]21	1	-2	-0.9
Cc1ccc(S(=O)(=O)N[C@H]2C=C[C@@H](CC(=O)NCc3ccc(Cl)c(Cl)c3)O[C@H]2CO)cc1	-39	-64	1.2
COc1ccc(CN(C)C[C@H]2OCCCC[C@H](C)Oc3ccc(NC(=O)Nc4ccc(C(F)(F)F)cc4)cc3C(=O)N([C@H](C)CO)C[C@@H]2C)cc1	-5	-16	3.0
CC(C)[C@H]1C(=O)N[C@H](c2ccccc2)CC=CC[C@H](C)Oc2ccccc2C(=O)N1C (mixture of isomers)	-5	-14	-0.6
COc1ccc(NC(=O)N[C@@H]2CC[C@H](CC(=O)NC3CCC3)O[C@@H]2CO)cc1	1	-4	-2.0
